Compound activity (PubChem)
CSC inhib = blocks cancer stem cells; cancer stem cell-like cells viability, luminescence; AID 2717; 300,000 compounds, 1.1% hits; inhibition, % at 7.5 µM;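 active = mean at 75% or more and at least half the replicates too; inconclusive = mean and replicates disagree; tested in HMLE shEcad cells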;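 note: 0% = median of negative and 100% = median of positive control wells; the first replicate is given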
eIF4H inh = inhibitors of RNA binding by human eIF4H | Q15056 | eIF4H fluorescence polarization binding assay | inhibition, % at 35 µM | 290,000 compounds, 0.94% hits | AID 2012;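 active = 50% or more with normal probe brightness, or confirmed in later tests; inconclusive = above 50% with abnormal brightness, or retests that disagree; inactive = below 50% or failed in later tests; about a fifth of its hits are not listed in these tables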;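 note: calls also rest on retests at 20 µM and on dose response follow-up; 0% = protein and probe with vehicle and 100% = probe without protein; strong numbers were not always called active; many hits fall short of the cut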
Yeast UUG start = alters start codon recognition fidelity in yeast; S. cerevisiae UUG-firefly luciferase reporter, luminescence/redox ratio; activity score, % at 18.7 µM; 350,000 compounds, 0.13% hits;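 active = replicate mean at a twofold rise or more, about +100% in these data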;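 note: firefly luciferase made from a UUG start codon reports start codon fidelity; reporter light over untreated wells divided by growth signal over untreated wells; some hits fall short of that in this replicate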
Rce1 inhib = blocks yeast Ras-converting enzyme | Q03530 | yeast membranes, quenched prenylated peptide cleavage fluorescence | calls only | 290,000 compounds, 0.27% hits | AID 2563;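 active = fall in fluorescence gain of 50% or more versus controls, with final raw signal at or below 3038400; inconclusive = same 50% fall but final raw signal above 3038400; inactive = fall in fluorescence gain under 50%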;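 note: plate controls were neutral control wells for no effect and wells lacking membranes for full effect; tested at 10 µM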
Target sequence (Q03530 whole entry, looked up): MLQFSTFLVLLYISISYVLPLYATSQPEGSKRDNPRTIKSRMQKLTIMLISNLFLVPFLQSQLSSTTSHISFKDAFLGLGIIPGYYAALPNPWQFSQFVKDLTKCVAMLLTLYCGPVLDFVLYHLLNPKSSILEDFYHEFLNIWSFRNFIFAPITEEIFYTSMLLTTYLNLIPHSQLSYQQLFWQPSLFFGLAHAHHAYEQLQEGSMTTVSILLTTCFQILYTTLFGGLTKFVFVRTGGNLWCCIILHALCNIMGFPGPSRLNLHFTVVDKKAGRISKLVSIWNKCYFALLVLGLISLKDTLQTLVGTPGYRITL
Env fusion inh = HIV envelope-mediated fusion inhibition. HeLa-JRFL Env/CEM21 cell fusion, luciferase. 360,000 compounds, 1.1% hits. AID 651610. inhibition, % at 12.3 µM;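 active = mean replicate inhibition score of at least 50 and every replicate individually at or above 50; inconclusive = only one of the two criteria met; inactive = mean below 50 and not all replicates reaching 50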;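 note: 0% = plate neutral controls and 100% = maraviroc near 300 nM; one replicate is shown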
MT1-MMP act inh = blocks activation of human MT1-MMP; P50281; GFP/RFP ratio change, % at 20 µM; HT1080 RFP-PRO-GFP cells, GFP/RFP ratio fluorescence, overnight; percent of plate control window, DMSO zero; 360,000 compounds, 0.061% hits;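 active = GFP/RFP ratio change of at least 30% with cell ATP level not reduced by more than half and red fluorescence within 50% of control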; note: strong numbers were not always called active
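Assay system: HT1080 cells carrying an RFP-PRO-GFP reporter | Dosing: Single dose of 20 µM compound, 1% DMSO final | Incubation: Cells overnight before dosing, compound overnight, 37 °C, 5% CO2 | Evaluation: GFP/RFP fluorescence ratio | Control set: DMSO and RFP-L50D-GFP cell wells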
PABP polyA inh = blocks human PABP binding to poly(A) RNA; fluorescence polarization; inhibition, % at 35 µM; 290,000 compounds, 1% hits;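 active = 50% or more with normal probe brightness, or confirmed in later tests; inconclusive = above 50% with abnormal brightness, or retests that disagree; inactive = below 50% or failed in later tests; about a fifth of its hits are not listed in these tables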;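 note: calls also rest on retests at 20 µM and on dose response follow-up; controls were probe without protein and protein plus probe with vehicle; some compounds called inactive have numbers as strong as hits; many hits fall short of the cut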
Target sequence (P11940 whole entry, looked up): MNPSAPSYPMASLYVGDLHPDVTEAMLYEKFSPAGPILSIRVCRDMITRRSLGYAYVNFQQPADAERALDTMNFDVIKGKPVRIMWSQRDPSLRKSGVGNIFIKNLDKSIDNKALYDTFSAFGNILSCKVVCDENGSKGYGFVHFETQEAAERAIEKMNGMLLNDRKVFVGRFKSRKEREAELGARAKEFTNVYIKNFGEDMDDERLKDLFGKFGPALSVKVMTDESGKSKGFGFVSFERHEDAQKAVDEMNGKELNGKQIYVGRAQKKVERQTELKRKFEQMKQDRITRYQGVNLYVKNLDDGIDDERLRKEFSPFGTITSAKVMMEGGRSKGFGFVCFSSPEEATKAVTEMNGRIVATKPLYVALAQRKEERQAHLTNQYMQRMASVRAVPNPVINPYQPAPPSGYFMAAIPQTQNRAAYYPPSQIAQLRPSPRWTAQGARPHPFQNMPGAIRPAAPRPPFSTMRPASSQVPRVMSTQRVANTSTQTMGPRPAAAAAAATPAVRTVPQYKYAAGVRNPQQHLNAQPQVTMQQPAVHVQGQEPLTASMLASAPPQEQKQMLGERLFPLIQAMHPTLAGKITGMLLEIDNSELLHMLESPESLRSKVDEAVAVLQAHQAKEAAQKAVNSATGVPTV
eIF4H inh retest = second read-out of eIF4H inh, no call of its own (marks repeat the call); inhibition, %; compound at 20 µM; confirmation average;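 mean of two retest wells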
PABP polyA inh retest = further read-out of PABP polyA inh, marked with its call; inhibition, %; compound at 20 µM; confirmation repeats;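 mean of two retest wells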
MT1-MMP act inh RFP = also measured in MT1-MMP act inh; calls as there; RFP signal change, %; measured here: RFP expression control read;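 0 = vehicle wells; hits needed this value within 50% of zero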
* = called active by the depositor.

How did N#CCCn1cc(C(=O)NCc2ccccc2)c(-c2cccs2)n1 do in these assays?
CSC inhib: 1; eIF4H inh: -2; Yeast UUG start: -16; Rce1 inhib: inactive; Env fusion inh: 11; MT1-MMP act inh: -1; PABP polyA inh: 6; MT1-MMP act inh RFP: 1

How did O=C1Nc2ccc3sc4ccccc4c3c2C1=O do in these assays?
CSC inhib: 5; eIF4H inh: 65; Yeast UUG start: -16; Rce1 inhib: inactive; Env fusion inh: -6; MT1-MMP act inh: 0; PABP polyA inh: 25; eIF4H inh retest: 50; PABP polyA inh retest: 25; MT1-MMP act inh RFP: 1

What do the screens show for `CC(C)CCNC(=O)C1C2C=CC3(CN(Cc4ccccc4Cl)C(=O)C13)O2` (stereo not drawn)?
CSC inhib: -11; eIF4H inh: 5; Yeast UUG start: -16; Rce1 inhib: inactive; Env fusion inh: 16; MT1-MMP act inh: -1; PABP polyA inh: -10; MT1-MMP act inh RFP: 2

How did COC(=O)C1=C(Nc2ccc(C)cc2)C=C(C)C(C(=O)OC)C1c1ccc(OC)cc1 (stereo not drawn) do in these assays?
CSC inhib: 68; eIF4H inh: -1; Yeast UUG start: -22; Rce1 inhib: inactive; Env fusion inh: -26; MT1-MMP act inh: -5; PABP polyA inh: 6; MT1-MMP act inh RFP: -12

How did Cc1ccc2nc(-c3ccc(SCC(=O)O)nc3)[nH]c2c1 do in these assays?
CSC inhib: -6; eIF4H inh: -4; Yeast UUG start: -14; Rce1 inhib: inactive; Env fusion inh: 5; MT1-MMP act inh: -2; PABP polyA inh: 6; MT1-MMP act inh RFP: -3

What do the screens show for `N#Cc1cc2c([nH]c1=O)CCCC2`?
CSC inhib: 5; eIF4H inh: -4; Yeast UUG start: 5; Rce1 inhib: inconclusive; Env fusion inh: -22; MT1-MMP act inh: -1; PABP polyA inh: -1; MT1-MMP act inh RFP: 2

Results for COc1ccc(-n2c(SCC(=O)O)nc3sc4c(c3c2=O)CCCC4)cc1 ?
CSC inhib: -7; eIF4H inh: -9; Yeast UUG start: -1; Rce1 inhib: inactive; Env fusion inh: 8; MT1-MMP act inh: -3; PABP polyA inh: 5; MT1-MMP act inh RFP: 1

How did CCN1C(=O)C(O)(CC(=O)C(C)(C)C)c2cc(Br)ccc21 (stereo not drawn) do in these assays?
CSC inhib: 6; eIF4H inh: 3; Rce1 inhib: inactive; Env fusion inh: -3; MT1-MMP act inh: 2; PABP polyA inh: -3; MT1-MMP act inh RFP: 6

How did COc1ccc(C(=O)NNC(=O)C(NC(=O)c2ccccc2NC(=O)c2ccco2)C(C)C)cc1 (stereo not drawn) do in these assays?
CSC inhib: 3; eIF4H inh: -10; Rce1 inhib: inactive; Env fusion inh: -10; MT1-MMP act inh: 4; PABP polyA inh: -1; MT1-MMP act inh RFP: 6

How did COc1ccc(C(CC(=O)c2ccc(C)cc2)Sc2ccccc2N)cc1 (stereo not drawn) do in these assays?
Yeast UUG start: -29; Env fusion inh: -66; MT1-MMP act inh: 1; MT1-MMP act inh RFP: 3

What do the screens show for `O=C(O)/C=C/c1ccc(Oc2ncccn2)cc1`?
CSC inhib: -15; eIF4H inh: -2; Yeast UUG start: -5; Rce1 inhib: inactive; Env fusion inh: 8; MT1-MMP act inh: 3; PABP polyA inh: 14; MT1-MMP act inh RFP: 3

How did Cc1ccc(NN=C2c3ccccc3-c3ccccc32)cc1 do in these assays?
CSC inhib: 9; eIF4H inh: -8; Rce1 inhib: inactive; Env fusion inh: 8; MT1-MMP act inh: 4; PABP polyA inh: -7; MT1-MMP act inh RFP: 5

Results for c1ccc(CSc2nnc([C@@H]3CCCN3)o2)cc1 ?
CSC inhib: -7; eIF4H inh: -8; Yeast UUG start: -12; Rce1 inhib: inactive; Env fusion inh: 94*; MT1-MMP act inh: 3; PABP polyA inh: 4; MT1-MMP act inh RFP: 2

Results for COc1cccc(N=Nc2c(=O)[nH]n3c(=O)cc(C)[nH]c23)c1 ?
CSC inhib: 4; eIF4H inh: -10; Rce1 inhib: inactive; MT1-MMP act inh: 1; PABP polyA inh: 12; MT1-MMP act inh RFP: 5

What do the screens show for `CCCCNC(=O)CN1C(=O)NC(CCc2ccccc2)C1=O` (stereo not drawn)?
CSC inhib: -6; eIF4H inh: -3; Rce1 inhib: inactive; Env fusion inh: -12; MT1-MMP act inh: 1; PABP polyA inh: 4; MT1-MMP act inh RFP: 6

Results for O=C1C=C(c2cccc(CO)c2)C[C@@H](c2ccc(F)cc2)C1 ?
CSC inhib: -5; Yeast UUG start: 7; Env fusion inh: 14; MT1-MMP act inh: -2; MT1-MMP act inh RFP: 1

How did CCOc1cccc(/C=C(\C#N)C(=O)NC2CC2)c1 do in these assays?
CSC inhib: 0; Yeast UUG start: -20; Env fusion inh: -12; MT1-MMP act inh: -3; MT1-MMP act inh RFP: 1

How did Cc1cc(C)n(-c2n[nH]c(=O)c3ccccc23)n1 do in these assays?
CSC inhib: -9; eIF4H inh: 2; Yeast UUG start: -10; Rce1 inhib: inactive; Env fusion inh: -3; MT1-MMP act inh: -1; PABP polyA inh: -4; MT1-MMP act inh RFP: -3

How did COc1ccc(C(=O)Nc2ccc(S(=O)(=O)NC(C)(C)C)cc2)cc1[N+](=O)[O-] do in these assays?
CSC inhib: -4; eIF4H inh: -8; Rce1 inhib: inactive; Env fusion inh: -1; MT1-MMP act inh: -2; PABP polyA inh: 7; MT1-MMP act inh RFP: -1

Results for Cc1cc(C)c(C)c(S(=O)(=O)N2CCN(c3ncnc4sc(C)c(C)c34)CC2)c1C ?
CSC inhib: 12; eIF4H inh: -10; Yeast UUG start: -3; Rce1 inhib: inactive; MT1-MMP act inh: -8; PABP polyA inh: 2; MT1-MMP act inh RFP: -25

How did COc1cc(C(=O)OCC(=O)c2cc(C)n(C)c2C)cc(OC)c1OC do in these assays?
CSC inhib: 42; eIF4H inh: 8; Yeast UUG start: 4; Rce1 inhib: inactive; Env fusion inh: -268; MT1-MMP act inh: 4; PABP polyA inh: -1; MT1-MMP act inh RFP: 4

What do the screens show for `CCOC(=O)C1=C(CSc2nc3c(cc2C#N)CN(C)CC3)OC(N)=C(C#N)C1c1ccncc1` (stereo not drawn)?
CSC inhib: -21; eIF4H inh: inconclusive; Yeast UUG start: -7; Rce1 inhib: inactive; MT1-MMP act inh: -41; PABP polyA inh: 11; MT1-MMP act inh RFP: 7

Results for Cn1cccc1/C=C(\C#N)C(N)=S ?
CSC inhib: 9; eIF4H inh: 24; Yeast UUG start: -15; Rce1 inhib: inactive; Env fusion inh: -8; PABP polyA inh: 27

What do the screens show for `CCCc1nc2c([nH]1)c(=O)n(C)c(=O)n2C`?
CSC inhib: -12; eIF4H inh: 0; Yeast UUG start: -16; Rce1 inhib: inactive; Env fusion inh: -16; MT1-MMP act inh: -3; PABP polyA inh: -5; MT1-MMP act inh RFP: -2

Overlap with the part before: four compounds; new compounds follow.
How did COc1cc(C(=O)OCC(=O)c2cc(C)n(C)c2C)cc(OC)c1OC do in these assays?
CSC inhib: 42; eIF4H inh: 8; Yeast UUG start: 4; Rce1 inhib: inactive; Env fusion inh: -268; MT1-MMP act inh: 4; PABP polyA inh: -1; MT1-MMP act inh RFP: 4

What do the screens show for `CCOC(=O)C1=C(CSc2nc3c(cc2C#N)CN(C)CC3)OC(N)=C(C#N)C1c1ccncc1` (stereo not drawn)?
CSC inhib: -21; eIF4H inh: inconclusive; Yeast UUG start: -7; Rce1 inhib: inactive; MT1-MMP act inh: -41; PABP polyA inh: 11; MT1-MMP act inh RFP: 7

Results for Cn1cccc1/C=C(\C#N)C(N)=S ?
CSC inhib: 9; eIF4H inh: 24; Yeast UUG start: -15; Rce1 inhib: inactive; Env fusion inh: -8; PABP polyA inh: 27

What do the screens show for `CCCc1nc2c([nH]1)c(=O)n(C)c(=O)n2C`?
CSC inhib: -12; eIF4H inh: 0; Yeast UUG start: -16; Rce1 inhib: inactive; Env fusion inh: -16; MT1-MMP act inh: -3; PABP polyA inh: -5; MT1-MMP act inh RFP: -2

How did O=C1NC(=O)/C(=C\c2ccc(N3CCOCC3)o2)N1 do in these assays?
CSC inhib: -7; eIF4H inh: 15; Rce1 inhib: inactive; Env fusion inh: 13; PABP polyA inh: -16

What do the screens show for `CCCCC1=C(C(=O)OCC)C(C(=O)OCC)Oc2ccccc21` (stereo not drawn)?
Yeast UUG start: -12; Env fusion inh: 13; MT1-MMP act inh: -3; MT1-MMP act inh RFP: -2

Results for CCC(C)[C@H](NC(=O)NC1CCCc2ccccc21)C(=O)O (stereo partly drawn) ?
CSC inhib: 4; eIF4H inh: -6; Yeast UUG start: -3; Rce1 inhib: inactive; Env fusion inh: -57; MT1-MMP act inh: -9; PABP polyA inh: -8; MT1-MMP act inh RFP: 1

Results for O=C(NCCCO)C(=O)Nc1cc2c3c(c1)CCC(=O)N3CCC2 ?
CSC inhib: -7; eIF4H inh: -14; Yeast UUG start: -14; Rce1 inhib: inactive; Env fusion inh: -2; MT1-MMP act inh: -4; PABP polyA inh: 3; MT1-MMP act inh RFP: 4

What do the screens show for `COc1cccc(OC)c1C(=O)Nc1ccc(CN2CCOCC2)cc1`?
CSC inhib: 4; eIF4H inh: 1; Yeast UUG start: -2; Rce1 inhib: inactive; MT1-MMP act inh: -10; PABP polyA inh: -10; MT1-MMP act inh RFP: 1

Results for COC(=O)CNC(c1ccccc1)c1cc(Br)ccc1NC(C)=O (stereo not drawn) ?
CSC inhib: -1; eIF4H inh: -3; Rce1 inhib: inactive; Env fusion inh: 3; MT1-MMP act inh: 3; PABP polyA inh: -15; MT1-MMP act inh RFP: 6

How did CCn1c(SCC(=O)NC2CCCC2)nnc1-c1ccccn1 do in these assays?
CSC inhib: -12; eIF4H inh: -13; Yeast UUG start: 4; Rce1 inhib: inactive; Env fusion inh: 0; MT1-MMP act inh: 5; PABP polyA inh: -7; MT1-MMP act inh RFP: 1

Results for Cc1ccsc1/C=N/NC(=O)CN1CCN(S(=O)(=O)c2ccc(Br)cc2)CC1 ?
CSC inhib: 2; eIF4H inh: -1; Yeast UUG start: 6; Rce1 inhib: inactive; Env fusion inh: -24; MT1-MMP act inh: -2; PABP polyA inh: 12; MT1-MMP act inh RFP: 1

How did COc1cccc(NC(=S)NN=C2CCCCCC2)c1 do in these assays?
eIF4H inh: 12; Rce1 inhib: inactive; Env fusion inh: -50; MT1-MMP act inh: 3; PABP polyA inh: 15; MT1-MMP act inh RFP: 4

What do the screens show for `CCCCNC(=O)N1CCc2[nH]c3ccccc3c2C1`?
CSC inhib: -6; eIF4H inh: 26; Yeast UUG start: -18; Rce1 inhib: inactive; Env fusion inh: 5; MT1-MMP act inh: -1; PABP polyA inh: 14; MT1-MMP act inh RFP: 5

What do the screens show for `COC/C=C/C1=CC2=CC(=O)C(C)(OC(=O)c3cnc4ccccc4n3)C(=O)C2=CN1CCN1CCOCC1` (stereo not drawn)?
CSC inhib: -1; eIF4H inh: 88; Yeast UUG start: -1; Rce1 inhib: inactive; Env fusion inh: -23; MT1-MMP act inh: 5; PABP polyA inh: 38; eIF4H inh retest: 30; PABP polyA inh retest: 46; MT1-MMP act inh RFP: 7

Only part of the results is shown; rates above refer to the full screens.
